Vaccinia Venus – vaccinia inhibition (Venus reporter); Potency, µM (doses to about 36.5 µM), for inactives: at the highest dose activity change, negative = inhibition, actives largely listed as inhibitors; Vaccinia virus Venus reporter expression, fluorescence; 330,000 compounds, 0.46% hits; AID 720580; active means well fitted inhibition curve with a large enough effect; inconclusive means small, poorly fitted or top-dose-only effect; inactive means no such curve, though single readings can be large or run the other way; tested in A549 cells; further: nearly all actives have a fitted effect of over 30% in size; inactives centre near -10
Vaccinia mCherry – vaccinia inhibition (mCherry reporter). Vaccinia virus mCherry reporter infection, fluorescence; about a quarter of the inactives have no number. Potency, µM (titrated, usually from 36.5 µM), for the others: at the highest dose activity change, negative = inhibition, usual class: inhibitors. 310,000 compounds, 0.63% hits; active = well fitted inhibition curve with a large enough effect; inconclusive = small, poorly fitted or top-dose-only effect; inactive = no such curve, though single readings can be large or run the other way; tested in A549 cells; further: nearly all actives have a fitted effect of over 35% in size; inactives centre near -10
Active calls of the source: *; & = joins results of further samples; [ ] = remark or other dose. On the % scale 0 is the no-effect control and ±100 the full control effect; potency means the concentration at half of the fitted maximal effect.

What do the screens show for `COc1ccc(OC)c(C(=O)NC(CC(N)=O)c2ccc(N3CCN(c4ccccn4)CC3)c([N+](=O)[O-])c2)c1` (centres undefined)?
Vaccinia Venus: -11%; Vaccinia mCherry: -1%

Results for CC(C)COC(=O)CNc1n[nH]c(=S)[nH]c1=O ?
Vaccinia Venus: 10%; Vaccinia mCherry: 1%

How did COc1cccc(-c2nn(-c3ccc(F)cc3)cc2C(=O)NCC2CCCO2)c1 (centres undefined) do in these assays?
Vaccinia Venus: -1%; Vaccinia mCherry: -9%

How did COc1cc(=O)n2c(c1C(=O)NCc1ccco1)CCN(Cc1cccc(C)n1)CC2 do in these assays?
Vaccinia Venus: 1%; Vaccinia mCherry: -10%

Results for C=CC[C@@H](Cc1ccc(F)cc1)C(=O)OC[C@H]1CCCN1C(=O)[C@@H](CC=C)CC(=O)N[C@@H](CO)Cc1ccccc1 ?
Vaccinia Venus: inconclusive; Vaccinia mCherry: inconclusive

What do the screens show for `COc1ccc2c(c1OC)C(=O)N(c1cccc(C)c1)C2`?
Vaccinia Venus: -14%; Vaccinia mCherry: -3%

Results for COc1ccc(CC(=O)N2CCC(n3nccc3NC(=O)C3CC3)CC2)cc1 ?
Vaccinia Venus: -3%; Vaccinia mCherry: -13%

How did O=C(NCc1cccc(Br)c1)C1CC(c2ccc(C(F)(F)F)cc2)=NO1 (centres undefined) do in these assays?
Vaccinia Venus: -4%; Vaccinia mCherry: -19%

How did COc1ccc(S(=O)(=O)N(C)C[C@@H]2OCCCC[C@H](C)Oc3ccc(NC(=O)Nc4ccc(C(F)(F)F)cc4)cc3C(=O)N([C@H](C)CO)C[C@H]2C)cc1 do in these assays?
Vaccinia Venus: -23%; Vaccinia mCherry: -7%

Results for NC(=S)N/N=C\c1c(OCc2ccccc2Cl)ccc2ccccc12 ?
Vaccinia Venus: inconclusive; Vaccinia mCherry: inconclusive

What do the screens show for `Cc1cc(=O)n(Cc2cccc(F)c2)c2c1c(C)nn2-c1cccc(F)c1`?
Vaccinia Venus: -11%; Vaccinia mCherry: -10%

Results for COc1cccc(-c2nnc(SCC(=O)N3CCCC3=O)n2-c2ccccc2)c1 ?
Vaccinia Venus: -12%; Vaccinia mCherry: inactive

Results for Nc1ccc(/C=C2\C=Cc3ccccc32)cc1 ?
Vaccinia Venus: -20%; Vaccinia mCherry: 17%

How did CCSc1n[nH]c2nc3c(c(=O)n12)C1(CCCC1)Cc1ccccc1-3 do in these assays?
Vaccinia Venus: -24%

How did Cc1ccc(C)c(S(=O)(=O)N(C)Cc2cccs2)c1 do in these assays?
Vaccinia Venus: -11%; Vaccinia mCherry: -3%

What do the screens show for `O=C(CC1SC(=Nc2ccccc2)N(CCO)C1=O)Nc1ccccc1` (centres undefined)?
Vaccinia Venus: -21%; Vaccinia mCherry: -19%

Results for CCC(CC)C(=O)c1c[nH]c(C(=O)NCc2ccncc2)c1 ?
Vaccinia Venus: -24%; Vaccinia mCherry: -8%

How did NC(=O)c1ccc([N+](=O)[O-])cc1SCc1ccccc1 do in these assays?
Vaccinia Venus: 1%

How did COc1ccc(CN2CCC(Oc3ccc(C(=O)N4CCCCC4)cc3)CC2)cc1C do in these assays?
Vaccinia Venus: inconclusive; Vaccinia mCherry: -12%

Results for COc1ccc(-c2noc(-c3cccc(OC)c3OC)n2)cc1 ?
Vaccinia Venus: -16%; Vaccinia mCherry: -12%

Of the compounds above, these contain an NH in an aromatic ring.
Results for CC(C)COC(=O)CNc1n[nH]c(=S)[nH]c1=O ?
Vaccinia Venus: 10%; Vaccinia mCherry: 1%

How did CCSc1n[nH]c2nc3c(c(=O)n12)C1(CCCC1)Cc1ccccc1-3 do in these assays?
Vaccinia Venus: -24%

Results for CCC(CC)C(=O)c1c[nH]c(C(=O)NCc2ccncc2)c1 ?
Vaccinia Venus: -24%; Vaccinia mCherry: -8%

Later entries
Results for CCc1ccc(-c2nc(SCC(=O)N(CC)C3CCS(=O)(=O)C3)n[nH]2)cc1 (centres undefined) ?
Vaccinia Venus: -19%; Vaccinia mCherry: inconclusive

How did O=C1OCCN1C(=O)[C@H]1[C@H](c2ccc([N+](=O)[O-])cc2)C(c2ccccc2)=NN1c1ccc(Br)cc1 do in these assays?
Vaccinia Venus: -20%; Vaccinia mCherry: -13%

What do the screens show for `COc1ccc(-c2cnc3c(NC=O)cc(-c4ccccc4OC)cn23)cc1OC`?
Vaccinia Venus: inconclusive; Vaccinia mCherry: inconclusive

What do the screens show for `CCc1cccc(NS(=O)(=O)c2ccc3c(c2)n(C)c(=O)n3C)c1`?
Vaccinia Venus: -27%; Vaccinia mCherry: inconclusive

What do the screens show for `Cc1ccc(-n2c(=O)c3c4c(sc3n(Cc3cc(=O)n5ccccc5n3)c2=O)CCC4)cc1C`?
Vaccinia Venus: -18%&-9%; Vaccinia mCherry: -16%&-7%

How did O=C(NCc1ccc(F)cc1)N1CCN(S(=O)(=O)c2ccccc2F)CC1 do in these assays?
Vaccinia Venus: 1%; Vaccinia mCherry: -1%

Results for COc1ccc(CN2CCCCC2c2cccnc2)cc1C (centres undefined) ?
Vaccinia Venus: -20%; Vaccinia mCherry: -10%

Results for Cc1ccc(-c2csc(NC(=O)c3ccc(Br)cc3)c2C(=O)O)cc1 ?
Vaccinia Venus: 0%; Vaccinia mCherry: inactive

How did O=C(NNc1nc2c(F)cccc2s1)C1=COCCO1 do in these assays?
Vaccinia Venus: 1%; Vaccinia mCherry: inactive

What do the screens show for `Cc1cc(Cl)ccc1OCCNC(=S)NC(=O)c1cccnc1`?
Vaccinia Venus: -12%; Vaccinia mCherry: inactive

What do the screens show for `Cc1ccccc1S(=O)(=O)Nc1nc2ccccc2nc1N1CCc2ccccc2C1`?
Vaccinia Venus: -6%; Vaccinia mCherry: -11%

What do the screens show for `COc1cc(/C=N/Nc2ccc(Cl)c(C(=O)O)c2)ccc1OC(=O)c1ccco1`?
Vaccinia Venus: -11%; Vaccinia mCherry: -8%

How did COc1cccc(CNC(=O)[C@@H]2CCCN2C(=O)[C@H]2CCCCN2C(=O)c2cccc3ccccc23)c1 do in these assays?
Vaccinia Venus: -7%; Vaccinia mCherry: inactive

What do the screens show for `O=C(Nc1ccccc1)c1ccc(S(=O)(=O)N2CCCCC2)cc1`?
Vaccinia Venus: -16%; Vaccinia mCherry: -12%

Results for CCNc1nc(Cl)nc(NC(C)C)n1 ?
Vaccinia Venus: -12%&-8%; Vaccinia mCherry: -24%

How did COc1ccc(-n2c(-c3ccc(C(C)(C)C)cc3)n[nH]c2=S)c(OC)c1 do in these assays?
Vaccinia Venus: -13%; Vaccinia mCherry: -13%

How did Fc1ccc(-c2csc(=S)[nH]2)cc1 do in these assays?
Vaccinia Venus: -14%; Vaccinia mCherry: -6%

Results for CCCCOC(=O)c1ccc(NC(=O)CC2NCCNC2=O)cc1 (centres undefined) ?
Vaccinia Venus: 1%; Vaccinia mCherry: 6%

What do the screens show for `CNC(=O)CC(C(=O)O)c1ccc(OCC(C)C)cc1` (centres undefined)?
Vaccinia Venus: -14%; Vaccinia mCherry: -11%

How did CCN(CC)c1ccc(C(=O)OCC(=O)NC2CCCCC2C)cc1 (centres undefined) do in these assays?
Vaccinia Venus: -15%; Vaccinia mCherry: -11%

3 structures from above, ordered by number of heavy atoms, largest number first.
How did COc1cccc(CNC(=O)[C@@H]2CCCN2C(=O)[C@H]2CCCCN2C(=O)c2cccc3ccccc23)c1 do in these assays?
Vaccinia Venus: -7%; Vaccinia mCherry: inactive

What do the screens show for `Cc1ccc(-n2c(=O)c3c4c(sc3n(Cc3cc(=O)n5ccccc5n3)c2=O)CCC4)cc1C`?
Vaccinia Venus: -18%&-9%; Vaccinia mCherry: -16%&-7%

Results for CCc1ccc(-c2nc(SCC(=O)N(CC)C3CCS(=O)(=O)C3)n[nH]2)cc1 (centres undefined) ?
Vaccinia Venus: -19%; Vaccinia mCherry: inconclusive

Next section.
How did CCN(Cc1ccncc1)C(=O)CSc1ccc2ccccc2c1 do in these assays?
Vaccinia Venus: -16%; Vaccinia mCherry: -12%

How did Cc1ccc(OCCC(=O)OCC(=O)Nc2cc(C)nn2-c2ccccc2)cc1 do in these assays?
Vaccinia Venus: -5%; Vaccinia mCherry: -15%

How did Cc1cc(-c2nc3ccccc3s2)ccc1NC(=O)c1cc(Cl)ccc1Cl do in these assays?
Vaccinia Venus: inconclusive; Vaccinia mCherry: inconclusive

What do the screens show for `COc1ccc(-c2cc(C#N)nc(Oc3ccc(Cl)cc3)n2)cc1`?
Vaccinia Venus: 8%; Vaccinia mCherry: -8%

How did CCOc1ccc(NC(=O)CN(C)Cc2cc(=O)n3c(-c4ccccc4)csc3n2)cc1OCC do in these assays?
Vaccinia Venus: -3%; Vaccinia mCherry: -12%

What do the screens show for `COCc1cc(C)nc(SCC(=O)NC2CCCCC2C)c1C#N` (centres undefined)?
Vaccinia Venus: -5%; Vaccinia mCherry: inactive

How did Cc1cccc(NC(=S)NC2CC3C=CC2C3)c1 (centres undefined) do in these assays?
Vaccinia Venus: -5%; Vaccinia mCherry: inactive

Results for Cc1ccc(O)c(-c2cc(-c3ccccc3C)[nH]n2)c1 ?
Vaccinia Venus: inconclusive; Vaccinia mCherry: inconclusive

Results for CCOC(=O)CC(NC(=O)c1cc2c(=O)n3cccc(C)c3nc2s1)c1ccc(OCC(C)C)c(OC)c1 (centres undefined) ?
Vaccinia Venus: 0%; Vaccinia mCherry: 4%

Results for O=C1OC(Cc2ccccn2)C(=O)C1=C1SCCS1 (centres undefined) ?
Vaccinia Venus: -8%; Vaccinia mCherry: inactive

Results for Cc1ccccc1C(=O)OCc1cc(=O)n2c(C)csc2n1 ?
Vaccinia Venus: -17%; Vaccinia mCherry: -3%

Results for C[C@@H](c1ccccc1)N1C[C@@H](COCc2ccccc2)Oc2cc(N3CCC[C@@H]3CO)ccc2S1(=O)=O ?
Vaccinia Venus: -4%; Vaccinia mCherry: -3%

Results for COc1ccc2nc3cc(Cl)ccc3c(Nc3cc(C(C)C)c(O)cc3C)c2c1 ?
Vaccinia Venus: inconclusive; Vaccinia mCherry: inconclusive

Results for Clc1ccc(-c2onc3c2CCCC3)cc1 ?
Vaccinia Venus: -16%; Vaccinia mCherry: -20%

Results for CCCc1nnc(NC(=O)Cc2coc3cc(C)cc(C)c23)s1 ?
Vaccinia Venus: -5%; Vaccinia mCherry: -2%

Results for CC1(C)COC(c2ccccc2Cl)OC1 ?
Vaccinia Venus: 0%; Vaccinia mCherry: inactive

Results for CCOC(=O)C(CC)n1cnc2c(nnn2-c2ccc(F)cc2)c1=O (centres undefined) ?
Vaccinia Venus: -20%; Vaccinia mCherry: inactive

How did O=c1[nH]c(CN2CCN(c3ccccc3O)CC2)nc2scc(-c3ccccc3Cl)c12 do in these assays?
Vaccinia Venus: 1%[7.34 µM]; Vaccinia mCherry: inconclusive

What do the screens show for `C=CCn1cc(C(=O)OCC)c(=O)c2cc(F)c(F)cc21`?
Vaccinia Venus: -15%; Vaccinia mCherry: -22%

What do the screens show for `CCOc1ccc(NC(=O)CSc2nnc(-c3ccncc3)n2-c2ccccc2)cc1`?
Vaccinia Venus: 3%; Vaccinia mCherry: -10%

In the list so far, 2 have a CF3 group.
How did O=C(NCc1cccc(Br)c1)C1CC(c2ccc(C(F)(F)F)cc2)=NO1 (centres undefined) do in these assays?
Vaccinia Venus: -4%; Vaccinia mCherry: -19%

How did COc1ccc(S(=O)(=O)N(C)C[C@@H]2OCCCC[C@H](C)Oc3ccc(NC(=O)Nc4ccc(C(F)(F)F)cc4)cc3C(=O)N([C@H](C)CO)C[C@H]2C)cc1 do in these assays?
Vaccinia Venus: -23%; Vaccinia mCherry: -7%

(continued)
How did CC(=O)C[C@H](O)CC(=O)[C@@H]1OC(=O)CCCCC/C=C/Cc2ccccc21 do in these assays?
Vaccinia Venus: -9%; Vaccinia mCherry: 0%

What do the screens show for `CCc1nnc(SCC(=O)Nc2cc(Cl)c(OC)cc2OC)c2cc3oc(C)cc3n12`?
Vaccinia Venus: -24%; Vaccinia mCherry: -27%

How did NS(=O)(=O)c1ccc(CNC(=O)c2cc(S(=O)(=O)N3CCOCC3)ccc2N2CCCC2)cc1 do in these assays?
Vaccinia Venus: -4%; Vaccinia mCherry: inactive

How did Fc1ccc(NCc2ccccc2-c2nnc(-c3ccccc3Cl)o2)cc1Cl do in these assays?
Vaccinia Venus: -12%; Vaccinia mCherry: -11%

Results for CC(C)N(C(=O)[C@H]1CC(CC(=O)NCCN2CCOCC2)C(=O)N2CCc3c([nH]c4ccccc34)[C@]12C)C(C)C (some centres undefined) ?
Vaccinia Venus: -21%; Vaccinia mCherry: -6%

Results for CCOC(=O)N1CCN(Cc2oc(CO)cc(=O)c2O)CC1 ?
Vaccinia Venus: -6%

How did COc1ccc(-c2cc(C)no2)cc1S(=O)(=O)N1CCCC(C)C1 (centres undefined) do in these assays?
Vaccinia Venus: -6%; Vaccinia mCherry: -6%

How did Cc1c(C(=O)O)oc2ccc(S(=O)(=O)N(CC(C)C)CC(C)C)cc12 do in these assays?
Vaccinia Venus: -4%

Results for COc1ccc(C(=O)NCC(c2ccc(N(C)C)cc2)N2CCOCC2)cc1 (centres undefined) ?
Vaccinia Venus: 6%; Vaccinia mCherry: 7%

How did CCOCC(=O)Nc1ccccc1C(=O)O do in these assays?
Vaccinia Venus: 3%; Vaccinia mCherry: 1%

How did CC1=Nc2ccccc2/C1=C/c1sc(=S)n(-c2cccc(C(=O)O)c2)c1O do in these assays?
Vaccinia Venus: -2%; Vaccinia mCherry: -1%

Bioassay records from PubChem BioAssay.
